HPGD block = HPGD (human) dehydrogenase inhibition; P15428; purified HPGD, NADH fluorescence kinetic, PGE2 substrate; Potency, µM, for inactives: top-dose activity change, negative = inhibition, usual class: inhibitors; 4.3% of 150,000 active; active = well fitted inhibition curve with a large enough effect (not every such curve was filed as active); inconclusive = small, poorly fitted or top-dose-only effect, or another doubt; inactive = no such curve, though single readings can be large or run the other way;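 note: top concentration of the series not given in the record; plate controls included wells without enzyme; inactives centre near -10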
Target sequence (P15428 whole entry, looked up): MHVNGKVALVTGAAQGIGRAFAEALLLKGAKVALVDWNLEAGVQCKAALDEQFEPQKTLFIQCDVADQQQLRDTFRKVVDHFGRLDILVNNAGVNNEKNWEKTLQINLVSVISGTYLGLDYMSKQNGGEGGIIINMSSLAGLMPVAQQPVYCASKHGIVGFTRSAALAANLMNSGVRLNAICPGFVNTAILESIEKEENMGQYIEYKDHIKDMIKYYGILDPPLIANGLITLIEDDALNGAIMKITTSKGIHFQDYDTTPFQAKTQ
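NADH formation kinetics: reaction with 30 uM PGE2 and 1 mM NAD+ (final), 20 nM enzyme, Tris-HCl pH 8 with Tween 20, after 15 min compound preincubation at room temperature. Fluorescence change, last versus first of five reads.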
Starred values were filed as active, the others as inactive; u = inconclusive; & = joins results of further samples. % is set by controls: 0 for no effect and ±100 for the full control effect; potency is the fitted concentration of half-maximal effect. The list is partial; rates above refer to the full screens.

Preview:
cpd	smiles	HPGD block
1	Cc1ccccc1C1CC(=O)NC2=C1C(=O)CCC2 (stereo not drawn)	-21%
2	O=c1c2ccccc2nnn1CSc1nnc(COc2ccc(Cl)cc2)n1Cc1ccco1	-13%
3	C/C(CC(=O)NC(C)(C)C)=N\NC(=O)c1ccco1	0%
4	CC(Cc1ccccc1)C(=O)NCCc1c[nH]c2ccccc12 (stereo not drawn)	-30%

The listing, previewed entries included:
cpd	smiles	HPGD block
1	Cc1ccccc1C1CC(=O)NC2=C1C(=O)CCC2 (stereo not drawn)	-21%
2	O=c1c2ccccc2nnn1CSc1nnc(COc2ccc(Cl)cc2)n1Cc1ccco1	-13%
3	C/C(CC(=O)NC(C)(C)C)=N\NC(=O)c1ccco1	0%
4	CC(Cc1ccccc1)C(=O)NCCc1c[nH]c2ccccc12 (stereo not drawn)	-30%
5	COc1ccc(CNc2nc(NCc3ccc(OC)c(OC)c3)n(C(=O)c3cccs3)n2)cc1OC	-13%
6	CCOc1ccc(N2CC(C(=O)NCc3cccc(C)c3)CC2=O)cc1 (stereo not drawn)	-23%
7	Cc1ccc(-c2nnc(-c3ccccc3)o2)cc1	u
8	CC(/C=C/C=C/c1ccccc1)=N/NC(=O)CNc1ccccc1C	1%
9	Cn1cccc1Cc1nnc(SCC(=O)NCc2ccco2)n1CCc1ccccc1	-1%
10	CCOc1ccc(N2C(=O)CC(N3CCC(NC(=O)Nc4ccccc4)CC3)C2=O)cc1 (stereo not drawn)	u
11	COC(=O)c1cc(C(=O)Nc2cccc(C)n2)cc([N+](=O)[O-])c1	-6%
12	O=C1CC(c2ccco2)CC(O)=C1C=NCC1CCNCC1 (stereo not drawn)	-13%

Three entries out of the list above, arranged by their value in HPGD block, smallest number first:
cpd	smiles	HPGD block
11	COC(=O)c1cc(C(=O)Nc2cccc(C)n2)cc([N+](=O)[O-])c1	-6%
9	Cn1cccc1Cc1nnc(SCC(=O)NCc2ccco2)n1CCc1ccccc1	-1%
8	CC(/C=C/C=C/c1ccccc1)=N/NC(=O)CNc1ccccc1C	1%

Carrying on.
cpd	smiles	HPGD block
13	CCOc1ccc(S(=O)(=O)Nc2ccc(S(=O)(=O)Nc3cc(OC)ccc3OC)cc2)cc1	-10%
14	O=C(C(c1ccccc1)c1ccccc1)N1CCOCC1	-18%
15	CC(NC(=O)/C(=C\c1cccc([N+](=O)[O-])c1)NC(=O)c1ccco1)C(=O)O (stereo not drawn)	28µM*
16	CCOC(=O)c1cc2c(=O)n3cccc(C)c3nc2n(Cc2ccccc2Cl)c1=N	u
17	CC1=C(C(=O)OCc2ccccc2)C(c2ccc(C#N)cc2)NC(=O)N1CCCC(=O)O (stereo not drawn)	-6%
18	COc1ccc(-c2csc(NC(=O)CCn3cnc4ccccc4c3=O)n2)cc1OC	-27%
19	O=C(O)CCn1c(C2CCCCC2)nc2ccccc21	-6%
20	COc1cc(/C=C/C(=O)Nc2nnc(C(C)(C)C)s2)cc(OC)c1OC	u
21	O=C(COC(=O)c1ccc(S(=O)(=O)NCc2ccco2)cc1)NCCC1=CCCCC1	-13%
22	COc1cc(S(=O)(=O)N2CCN3CCCC3C2)ccc1-n1cnnn1 (stereo not drawn)	-4%
23	CCCCC(CC)CNS(=O)(=O)c1ccc2c(c1)CCN2C(=O)CCC(=O)O (stereo not drawn)	-11%
24	Cc1ccccc1CS(=O)(=O)c1nnc([C@H](Cc2ccccc2)NC(=O)OC(C)(C)C)o1	7.1µM*
25	CCCCn1c(=O)c(-c2ccccc2)c(O)c2ccccc21	-9%
26	CCCCn1c(=O)c2c(O)cc(=O)oc2c2ccccc21	-8%
27	CCOC(=O)c1[nH]c2c(c1C)C(=O)CC(c1ccc(OC)c(OC)c1)C2 (stereo not drawn)	-1%
28	CN(C(=O)c1ccc(S(=O)(=O)c2cccc(Cl)c2)c([N+](=O)[O-])c1)C1CCCCC1	-6%
29	COC(=O)[C@@]1(Cc2ccc(F)cc2)[C@H]2c3cc(C(=O)N(C)C)n(CCc4ccc(OC)c(Br)c4)c3C[C@H]2CN1C(=O)c1ccccc1	-2%&-2%
30	CC1CCN(C(=O)CN(c2ccc(Cl)c(C(F)(F)F)c2)S(C)(=O)=O)CC1	-7%
31	N#CC(c1cccc(C(F)(F)F)c1)(c1ncc(C(F)(F)F)cc1Cl)N1CCOCC1 (stereo not drawn)	-8%
32	Cc1cc(NC(=O)CSc2nc3ccccc3c(=O)n2Cc2ccc(F)cc2)no1	-1%
33	CC(=O)OCCNc1cc(N2CCN(C)CC2)c2noc3c2c1C(=O)c1ccccc1-3	-12%
34	COc1ccc(-c2nnc(CSc3nc4ccccc4c(=O)n3C)o2)cc1OC	-19%
35	CC(C)(C)CC(C)(C)NC(=S)NC1CCN(Cc2ccccc2)CC1	-2%
36	CCOC(=O)C1=C(O)C(Nc2nccs2)(C(F)(F)F)N=C1C (stereo not drawn)	0%
37	COc1ccc(S(=O)(=O)N2CCN(C(=O)CCC3CCCC3)CC2)cc1	-2%
38	O=[N+]([O-])c1ccc(CS(=O)Cc2ccccc2)cc1 (stereo not drawn)	2%
39	NC(=S)c1ccc(C(N)=S)o1	-13%
40	Cc1cc(=O)n2nc(N3CCCC3C(=O)NCCCN3CC(C)CC(C)C3)sc2n1 (stereo not drawn)	2%
41	CCCCN(C(=S)NC(=O)c1ccccc1)c1c(N)n(Cc2ccccc2)c(=O)[nH]c1=O	-20%
42	CC1CC1c1ccc(/C=C(\C#N)C(=O)Nc2ccc(Cl)cc2Cl)o1 (stereo not drawn)	-13%
43	Oc1ccc(Br)cc1C=Nc1ccc2[nH]ncc2c1	-21%
44	COC(=O)c1ccc(S(=O)(=O)c2ccc(C(=O)OC)s2)s1	-3%
45	CCN(CC)c1ccc(NC(=O)c2cc(OC)cc(OC)c2)c(C)c1	-7%
46	O=c1ncn(-c2ccccc2F)c2ncccc12	-5%
47	COCC(=O)N(Cc1ccccc1)c1ccccn1	-8%
48	Cc1cnc(C(=O)OCC(=O)Nc2ccc(Oc3ccccc3)cc2)cn1	-13%
49	CN(C)S(=O)(=O)N1CCN(c2ccc(Cl)cc2)CC1	-3%
50	CCn1c(COc2ccccc2OC)nnc1SCC#N	-10%
51	COc1cc(C(=O)OCC(=O)Nc2ccc3c(c2)OC(F)(F)O3)ccc1OCc1c(C)noc1C	-14%
52	O=C(NCc1ccc2c(c1)OCO2)C1CCCN1C(=O)Nc1cccc(F)c1 (stereo not drawn)	-16%
53	O=C(NC(=O)c1ccccc1)NC1(C(F)(F)F)OCCO1	-12%
54	O=C(NCc1ccco1)c1ccc2c(c1)N(Cc1ccccc1)C(=O)CS2=O (stereo not drawn)	0%
55	CCOc1cccc(NC(=O)Cn2nc(-c3ccc4c(c3)OCCO4)ccc2=O)c1	-24%
56	CC(C)NC(=O)Cn1cc(C#N)c2cc(Br)ccc21	-8%
57	Fc1ccccc1N1CCN(C(c2cccs2)c2nnnn2CCc2ccccc2)CC1 (stereo not drawn)	-10%
58	O=C(CSc1nc2ccccc2[nH]1)N1CCN(c2ccc(F)cc2)CC1	-11%
59	COc1cccc(N2C(=O)N(c3ccccc3)C3CS(=O)(=O)CC32)c1 (stereo not drawn)	-5%
60	Cc1cccc(NC(=O)c2ccc(C3SCC(=O)N3CCc3ccccc3)cc2)c1 (stereo not drawn)	u
61	CCOC(=O)Cn1nnnc1C(CC)N(Cc1cc2c(C)cc(C)cc2[nH]c1=O)C1CCCC1 (stereo not drawn)	-7%
62	Cc1cc(COc2ccccc2OCCN2CCN(C)CC2)no1	2%
63	COC(=O)c1cc(OC)c(OC)cc1NC(=O)c1cc(-c2ccccc2)nc2ccccc12	u
64	O=C(N/C=C\c1ccccc1)NCc1ccc(Cl)cc1Cl	-7%
65	C=CCSc1nc2ccccc2c(=O)[nH]1	-29%
66	CN(C)c1ccc(-c2nc(NC3CCNCC3)c3ccccc3n2)cc1	-14%
67	CC(C)(C)OC(=O)N1CC2Cc3[nH]c(=O)ccc3C(C2)C1 (stereo not drawn)	-28%
68	CC(Nc1nc(N2CCN(S(C)(=O)=O)CC2)nc2ccccc12)c1ccccc1 (stereo not drawn)	u
69	Cc1cc(S(=O)(=O)N(Cc2ccc3c(c2)OCO3)CC2CCCO2)ccc1-n1cnnn1 (stereo not drawn)	-10%
70	O=C(Nc1nccs1)c1sc2cc(Cl)ccc2c1Cl	u
71	Cn1c(=NC(=O)C2CC2)sc2cccc(F)c21	-20%
72	Cc1cccc(-n2ccnc2SCC(=O)Nc2ccc3c(c2)OCCO3)c1	-10%

Additional entries.
cpd	smiles	HPGD block
73	O=C(N/N=C/C=C\c1ccccc1[N+](=O)[O-])c1ccccn1	-25%
74	Cc1cc(C)n(-c2nnc(C)n2/N=C/c2ccccc2F)n1	-3%
75	COc1ccccc1C1CC(c2ccc(F)cc2)Nc2ncnn21 (stereo not drawn)	-5%
76	CCc1cc2c(NCC3CCCO3)ncnc2s1 (stereo not drawn)	14µM*
77	COC(=O)c1cccc(NC(=O)Nc2ccc(Cl)c(Cl)c2)c1	-4%
78	CCN(CC)C(=O)C1CCCN(Cc2ccc(F)c(F)c2)C1 (stereo not drawn)	-7%
79	CC12CCC(C(=O)Nc3c(Cl)cccc3Cl)(C(Br)C1=O)C2(C)C (stereo not drawn)	-2%
80	CCNc1nc(NC(C)C)nc(OCCOC(=O)c2ccccc2)n1	-12%
81	Cc1sc(NC(=O)/C=C/c2ccc(C(C)C)cc2)c(C#N)c1C	u
82	CCOc1cc(S(=O)(=O)NCc2ccccn2)ccc1Cl	-3%
83	COc1ccc(C2CC(c3cccs3)=NN2C(=O)CSC2=NN3CCCC(=O)N=C3S2)cc1 (stereo not drawn)	-14%
84	N#CCOC(=O)c1sccc1-n1cccc1	-5%
85	CCOc1ccccc1N1CCN(C(=O)Nc2cccc(Cl)c2)CC1	1%
86	CCOC(=O)C1Oc2ccccc2C(C(=O)OC)=C1C(=O)OC (stereo not drawn)	-6%
87	C=CCn1c(CCNC(=O)c2ccccc2F)nnc1SCC(=O)Nc1nc(C)cs1	-12%
88	Cc1ccc(-c2ccnc(=S)[nH]2)cc1	-18%
89	O=S(=O)(O)c1nc2ccccc2n1Cc1ccccc1	-14%
90	CCC(=O)N1CCc2cc(S(=O)(=O)NCCN3CCCCC3CC)ccc21 (stereo not drawn)	-15%
91	C=CCOc1cccc(C2/C(=C(/O)c3ccc(C)cc3)C(=O)C(=O)N2CCN2CCOCC2)c1 (stereo not drawn)	-21%
92	O=C(CCC(=O)c1cccs1)Nc1ccccc1F	-21%
93	Cc1ccc(C(=O)Nc2nc3ccc(S(C)(=O)=O)cc3s2)o1	-23%
94	O=C(CSc1nnc(-c2ccccc2)n1Cc1ccco1)Nc1ccc2c(c1)OCCO2	-10%
95	Cc1cc(=O)oc2cc(OCCSCCN3CCOCC3)ccc12	u
96	COC(=O)[C@H]1C[C@@H]1[C@H](NC(=O)c1ccccc1)c1ccccc1	-10%&-11%
97	COCCn1nnnc1CN1C2CCCC1CC(NC(C)=O)C2 (stereo not drawn)	-2%
98	CN1CCN(C(=O)N2c3ccccc3C=Cc3ccccc32)CC1	-8%
99	COc1ccc(Oc2ncc3ncc(=O)n(CCC#N)c3n2)cc1	-10%
100	O=c1oc2ccccc2n1CSC1=NCCS1	-19%
101	Cc1onc(-c2ccccc2)c1C(=O)n1nnc2ccccc21	u
102	C=C1CCC2C(C)(C)[C@H](O)CC[C@@]2(C)[C@@H]1COc1cc(=O)oc2ccccc12 (stereo partly drawn)	-3%
103	CCN1/C(=C/c2ccc3ccc(C)cc3[n+]2CC)Sc2ccccc21	-3%
104	COc1ccc(C(=O)C(OC(=O)c2ccccc2)c2ccccc2)cc1 (stereo not drawn)	-28%
105	Brc1cc2c(cc1/C=N/Nc1nc3ccccc3s1)OCO2	-23%
106	COc1ccc(NC(=O)CSc2nnc(N)s2)cc1	-13%
107	N#CC1=C(N)N(c2ccc(Oc3ccccc3)cc2)C(=O)C1	-2%
108	O=C(CSc1nnc(Cc2cccs2)n1C1CCCCC1)N1CCCc2ccccc21	-23%
109	Cc1c(-c2ccccc2)cn2c1-c1ccc(C)n1CC2	-9%
110	CC1(C)CC(=O)c2cnc(N3CCN(c4ccccc4)CC3)nc2C1	u
111	CCN1CNC(=S)N(c2ccccc2OC)C1	-1%
112	CC(C)(C)S(=O)c1cccs1 (stereo not drawn)	-6%
113	CCC(=O)NCCNc1ccc([N+](=O)[O-])cn1	-17%
114	Cc1cc(NC(=O)CN2C(=O)NC3(CCC(C)CC3)C2=O)no1 (stereo not drawn)	-2%
115	O=C(Oc1ccccc1)N1CCC[C@@]2(CCN(c3ccncc3)C2)C1	3%
116	COc1ccc(C(=O)Cc2nnc(C)s2)c(OC)c1	-17%
117	S=c1[nH]nc(CSc2nc3ccccc3s2)n1Cc1ccccc1	13µM*
118	COc1ccc(-c2nnc(NC(=O)C(C)C)o2)cc1	-6%
119	Cc1nc(-c2ccccc2)nc2[nH]c(C(C)C)cc(=O)c12	-19%
120	Cc1ccc(CNC(=O)Cn2cncn2)cc1	-4%

Shown with the structure last: part of the list above.
item	HPGD block	SMILES
118	-6%	COc1ccc(-c2nnc(NC(=O)C(C)C)o2)cc1
113	-17%	CCC(=O)NCCNc1ccc([N+](=O)[O-])cn1

Following part.
cpd	smiles	HPGD block
121	CCSCc1nnc(SCC(=O)Nc2cccc(SC)c2)n1C	-19%
122	CC(C)C(=O)N1CCC(CN=Cc2c(O)n(C3CCCCC3)c(=O)n(C3CCCCC3)c2=O)CC1	-20%
123	Cc1cccc(C)c1NC(=O)COC(=O)CSc1nnc(N)s1	-10%
124	COc1cc2[nH]c(=O)n(CCC(=O)N3CCN(c4cccc(C)c4C)CC3)c(=O)c2cc1OC	-28%
125	CN(C)C(=O)Cn1c(SCC(=O)Nc2ccc3c(c2)OCO3)nc2ccccc21	-9%

Bioassay records: PubChem, National Center for Advancing Translational Sciences (NCATS)
